Screening data (PubChem)
Menin MLL FP FL – menin-MLL binding inhibition, fluorescein peptide; Fluorescence polarization, fluorescein-MLL peptide displacement from menin; FP activity change, % at 61.4 µM; 290,000 tested, under 10 active; inconclusive = falling polarisation curve, or a change in total fluorescence; inactive = total fluorescence flat and polarisation flat or rising; no compound was filed as active; the % refers to the polarisation; negative = inhibition;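 note: % of control where 0% means no effect; inhibitors lower the polarisation; unlabelled MLL peptide was the positive control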
Sfp inh – inhibitors of Bacillus subtilis Sfp phosphopantetheinyl transferase; Q9F4F7; Biochemical Sfp PPTase activity, qHTS; Potency, µM, without a hit: max response, negative = inhibition, most hits filed as inhibitors; 310,000 compounds, 3.5% hits; AID 1490; active = well fitted inhibition curve with a large enough effect; inconclusive = small, poorly fitted or top-dose-only effect, or another doubt; inactive = no such curve, though single readings can be large or run the other way;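 note: the enzyme is Sfp with the accession as filed and its product quenches rhodamine fluorescence; potency is the fitted concentration of half-maximal effect; 0% = enzyme reaction without inhibitor and -100% = no enzyme wells; top concentration of the series not given in the record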
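Fluorescence-quenching assay with 15 nM Sfp, 5 uM rhodamine-CoA and 12.5 uM BHQ-2-labelled ybbR peptide in pH 7.6 Hepes/MgCl2 buffer. Enzyme was pre-incubated with compound for 15 min at room temperature. Rate was taken from the 30-min fluorescence change (525/598 nm).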
The depositor's hits bear a star; ? = inconclusive; & = joins results of further samples; ! = not confirmed by another sample; [ ] = another dose, or the depositor's remark.

smiles	Menin MLL FP FL	Sfp inh
C[Se]CC[C@H](N)C(=O)O	5.6	?
Cc1c(CC(C)(C)C(=O)O)n(Cc2ccc(Cl)cc2)c2ccc(F)cc12	20.2	-6.6%
O=C(c1csnn1)N1CCC2(CCN(Cc3cc(C(F)(F)F)cc(C(F)(F)F)c3)CC2)CC1	-2.8	6.9%
CC(C)(C)NC[C@H](O)CSc1nc(-c2ccc(C(N)=O)s2)cs1	-1.9	16.3%
CCCCC#CC1C=CC(Oc2ccc(OC)cc2)C(CO)O1 (stereo not drawn)	0.3[11.7 µM]	7.2%
OC[C@H]1NC[C@@H](O)[C@@H](O)[C@H]1O	?	-20.4%
N#CCCn1c(=O)c(-c2ccc(F)cc2)nc2cnc(N3CCNCC3)nc21	-1.7	12.2%
C=C(C)[C@H]1CC=C(CO)CC1	-1.4	16.9%
N[C@@H](COP(=O)(O)O)C(=O)O	2.5&-10.3	39.8µM*!
CC(=O)OC1CC(OC(C)=O)[C@]2(C)C(CC(OC(C)=O)[C@@]3(C)C4=CC(=O)OC(c5ccoc5)[C@]4(C)CCC32)C1(C)C (stereo partly drawn)	-2.2	14.7%
CCCCC[C@H](O)/C=C/[C@H]1OC(=O)C[C@H](O)[C@@H]1C/C=C\CCCC(=O)O	1.1	-14.8%
Clc1cccc(C=NC=Nc2cccc(Cl)c2)c1	-2.2	-21.9%
COCCNc1ncnc2ccc(-c3ccccc3C)cc12	-0.3	79.4µM*
CN(C)c1ccc(-c2ccc3ncnc(N(C)C)c3c2)cc1	?	-16.0%
CCCCC1=CC2=C(OC(C)=O)C(=O)C(C)(OC(=O)CC)C(=O)C2=CO1 (stereo not drawn)	1.1	-17.9%
COC(=O)c1ccc(C(NC(=O)OCc2ccccc2)/C(C)=C/[C@@H](C)C(=O)N[C@@H](CO)Cc2ccccc2)cc1 (stereo partly drawn)	-0.3	28.7%
CC(=O)NCCCC[C@H](NC(=O)OC(C)(C)C)C(=O)Nc1ccc2c(C(F)(F)F)cc(=O)oc2c1	0.2	3.1%
C=C(C(=O)OCC)C(=O)c1ccccc1	0.8	-5.7%
COc1cccc(Cn2c(=O)c(-c3cccs3)nc3cnc(OC)nc32)c1	0.8	-1.0%
COc1cccc(Nc2ncc3nc(-c4ccccc4)c(=O)n(C)c3n2)c1	?	5.5%

Single records (already shown). Order of values: Menin MLL FP FL | Sfp inh
`O=C(c1csnn1)N1CCC2(CCN(Cc3cc(C(F)(F)F)cc(C(F)(F)F)c3)CC2)CC1` is listed with -2.8 | 6.9%
`C=C(C)[C@H]1CC=C(CO)CC1` is listed with -1.4 | 16.9%

Remaining list, next part
smiles	Menin MLL FP FL	Sfp inh
CCCCC[C@H](O)/C=C\[C@@H]1[C@H](O)CC(=O)[C@@H]1CCCCCCC(=O)O	0.5[24.8 µM]	32.5%[activator]
O=C1Oc2ccccc2C(=O)C1C(CC(O)c1ccc(-c2ccc(Br)cc2)cc1)c1ccccc1 (stereo not drawn)	0.2	18.4%
O=C(c1cc(C(F)(F)F)cc(C(F)(F)F)c1)N1CCC[C@@]2(CCN(Cc3ccccc3)C2)C1	-4.4	1.1%
NC(=O)CCC1NC(=O)C(Cc2ccccc2)NC(=O)C(Cc2ccc(O)cc2)NC(=O)CCSSCC(C(=O)N2CCCC2C(=O)NC(CCCN=C(N)N)C(=O)NCC(N)=O)NC(=O)C(CC(N)=O)NC1=O (stereo not drawn)	-2.6	22.5%
CC(C)CO/N=C1/C[C@@H](O)[C@@H](O)[C@@H]2[C@@H]3C(=O)N(C(C)(C)C)C(=O)[C@H]3CC[C@H]12	1.6[11.7 µM]	14.1%
CCN1C(C)=C(C(=O)OC)C(c2ccccc2)N2C(=O)[C@@]3(C(=O)OC)O[C@@]12C1C(=O)N(c2ccccc2)C(=O)C13 (stereo partly drawn)	1.0[11.7 µM]	1.2%
c1cncc(CNc2ncncc2-c2ccc3c(c2)OCO3)c1	-1.7	-20.4%
OC[C@@H]1O[C@H](OC2[C@@H](O)[C@@H](O)[C@@H](O)O[C@@H]2CO)[C@H](O)[C@@H](O)[C@@H]1OC1O[C@H](CO)[C@@H](O)[C@H](O)[C@@H]1O (stereo partly drawn)	-2.9	-5.7%
COC(=O)[C@@]1(Cc2ccc(OC)cc2)[C@@H]2[C@@H](CC(=O)[C@H]2CC(=O)C(=O)N2CCCC2)CN1C(=O)c1ccccc1	6.7	12.3%
CCCCCCCCCCC(CO)CCCCCCCC (stereo not drawn)	-2.3	24.2%
Cc1cccn2c(=O)c(-c3nnn[nH]3)cnc12	1.0	?
COc1ncc2nc(C)c(=O)n(C[C@H]3CCCO3)c2n1	1.2	24.5%
CCOC(=O)CCN1C(=O)[C@H]2[C@H]3[C@H](O)[C@H](O)C/C(=N/NC(=O)OCC)[C@@H]3CC[C@@H]2C1=O	-2.0[11.7 µM]	16.1%
C=C1C(=O)OC2C=C(C)CCC=C(C)CCC12 (stereo not drawn)	?	-17.0%
CC(=O)OCC1OC(C#CC2=CCCCC2)C=CC1OC(C)=O (stereo not drawn)	5.0[11.7 µM]	-2.4%
Cc1cccc(CNc2ncnc3ccc(-c4ccc(C(=O)N(C)C)cc4)cc23)c1	-1.3	4.5%
C/C=C\C1=CCCC1Nc1ncnc2ccc(-c3c(C)noc3C)cc12 (stereo not drawn)	1.6	-1.6%
O=C(c1csnn1)N1CCC2(CCCN(c3ccccc3)C2)CC1	12.0	-6.4%
Cc1ccc(S(=O)(=O)N[C@H]2COC(=O)C/C=C\[C@@H](C)COC(=O)C/C=C\[C@@H]2C)cc1	4.8&1.9[11.7 µM]	2.0%&7.7%
ONCc1ccccc1	1.3	12.6µM*
CCCn1c(C)nc2c(N3CCC(N(C)C)C3)nc(C)nc21 (stereo not drawn)	1.1	25.1%
C[C@H](C(=O)O)c1ccc2cc(O)ccc2c1	-5.1	3.6%
CN1C(=O)CCC1c1cccnc1 (stereo not drawn)	?	19.7%&-4.5%&10.3%
CCCCCCC/C=C/C1=CC2(C)CC1(C)C(CCCCCCC)CC2=O (stereo not drawn)	-2.1[11.7 µM]	-7.0%
Nc1c(N=Nc2ccc(-c3ccc(N=Nc4cc(S(=O)(=O)O)c5ccccc5c4N)cc3)cc2)cc(S(=O)(=O)O)c2ccccc12	?	44.7µM*
CCNc1ncc2nc(-c3ccc(F)cc3)c(=O)n(CCC#N)c2n1	?	1.0%
C=C(C)C(=O)/C=C/C=C/c1ccccc1	-0.2	15.2%
CC(=O)NCCNc1nc(-c2ccccc2CN(C)C)nc2ccccc12	-2.4	1.3%
CC(C)[C@H](O)C1=CCCCC1=O	0.1	2.2%&6.3%
C=C/C1=C/Cc2ccccc2[C@H](C[N+](=O)[O-])C(C(=O)OC)(C(=O)OC)C1	-1.5	-15.2%
COc1ccc2[nH]cc(CCNc3cc(-c4ccoc4)ncn3)c2c1	-0.2	?
O=C1C[C@H](c2ccccc2)[C@@H](c2ccc(Br)cc2)O1	-1.3[11.7 µM]	5.3%
NCCCNCCCCN(CCCN)/[N+]([O-])=N/O	?	-7.7%
CC(C)(C)N1C(=O)[C@H]2[C@H]3[C@H](O)[C@H](O)C/C(=N/OCc4ccccc4)[C@@H]3CC[C@@H]2C1=O	-1.6[11.7 µM]	2.3%
CC(=O)OC1CC2CCC1(C)C2(C)C (stereo not drawn)	-17.9&-0.6	4.6%&14.1%
C[C@]12C[C@@](C)(C=C1/C=C/c1ccc(F)cc1)C(=O)C[C@H]2c1ccc(F)cc1	-0.6	-25.0%
CN(C)C(=O)c1ccc(-c2nc(NCc3ccccc3)c3ccccc3n2)cc1	-13.2	-6.2%
Nc1ncnc2c1nc(Br)n2C1OC(CO)C(O)C1O (stereo not drawn)	-4.1	-1.6%
CC1(C)C(O)C=C[C@@]2(C)C1CC(=O)O[C@@]1(C)C3=CC(=O)OC(c4ccoc4)[C@]3(C)CCC21 (stereo partly drawn)	11.4	-5.4%
CCNC(=O)CCC(N)C(=O)O (stereo not drawn)	-6.6	-12.9%
NC(=O)C1CCCN1C(=O)C(Cc1cnc[nH]1)NC(=O)C1CCC(=O)N1 (stereo not drawn)	-0.2	8.5%
O=C(C1CCN(S(=O)(=O)c2cccc3cccnc23)CC1)N1CC=C(c2ccccc2)CC1	7.4	6.0%
CCCC[C@@H]1C[C@H]1C(NC(=O)c1ccc(-c2ccccc2)cc1)c1ccc(-c2ccccc2)cc1 (stereo partly drawn)	1.2	33.3%[activator]
COc1ccc(S(=O)(=O)Nc2cc(OC)cc3cccnc23)cc1	1.1	-0.4%
COc1ccccc1-c1nccc(NC2CCNCC2)n1	-3.0	15.1%
CC1=NN(c2ccc([N+](=O)[O-])cc2)C(=O)C1[N+](=O)[O-] (stereo not drawn)	2.7	-11.5%
CCOC(=O)/C(C)=N/NC(C)=O	-2.7	-2.3%
COC(=O)[C@@]1(Cc2ccc(OC)cc2)[C@H]2c3cc(C(=O)N(C)C)n(CCc4ccccn4)c3C[C@H]2CN1C(=O)c1ccccc1	-4.9	4.0%
O=Cc1ccccc1C=O	9.6	11.2µM*
CC(=O)NCCNc1ncnc2ccc(-c3ccccc3Cl)cc12	-1.0	-6.3%
CC1CCC(O)C/C1=C\C=C1/CCCC2(C)C1CCC2C(C)/C=C/C(C)C(C)C (stereo not drawn)	4.2&3.5	17.8%&-9.4%
OC/C=C/c1ccccc1	-1.1	14.0%
CCCCCCCCCCCCCCC[C@@H](O)[C@H](CO)NC(C)=O	0.1	28.7%&13.0%
C[C@@H](N)C(=O)O	5.3&-18.7	?
CCNc1ncc2nc(-c3ccc(OC)cc3)c(=O)n(Cc3ccc(F)cc3)c2n1	0.7	3.0%
COCCn1c(=O)c(-c2ccc(Cl)cc2)nc2cnc(Oc3ccccc3)nc21	-1.8	-3.5%
c1cncc(-c2cncnc2-n2ccnc2)c1	-2.5	-18.1%
COc1ccc(C(=O)N2CCC[C@@]3(CCN(c4ccccn4)C3)C2)cc1	0.4	13.6%
COc1ccccc1C1CC(=O)Oc2cc3c(cc21)OCO3 (stereo not drawn)	7.5[94.6 µM]	-17.8%
COc1ccc(-c2nc3cnc(N(C)C)nc3n(C[C@H]3CCCO3)c2=O)cc1	?	24.1%

Continuation.
smiles	Menin MLL FP FL	Sfp inh
COC(=O)C/C=C1\c2ccc3c(c2[C@@H](OC)[C@@H]1C)OCO3	-0.4	4.3%
COc1ccccc1-c1cc(NCc2cccc(C)c2)ncn1	0.4	-7.2%
C[C@]12CCC(=O)C=C1CC[C@H]1[C@@H]3CC[C@](O)(C(=O)CO)[C@@]3(C)C[C@H](O)[C@@]12F	-1.2	14.9%
COc1ccccc1CNc1nc(-c2cccc(C#N)c2)nc2ccccc12	-2.9	0.6%
COc1cccc(Nc2ncc3nc(C)c(=O)n(Cc4cccs4)c3n2)c1	?	17.4%
COc1ccccc1CNc1cc(-c2cccc(C#N)c2)ncn1	3.5	-5.6%
COC(=O)C/C=C/[C@@H](C)[C@H](NC(=O)OCC(Cl)(Cl)Cl)c1ccccc1	0.2	9.2%
Cn1cc(-c2nc3cnc(N4CCNCC4)nc3n(C3CC3)c2=O)c2ccccc21	?	-3.1%
N#Cc1cccc(NC(=O)N2CCC3(CC2)CCN(C(=O)c2cccc(F)c2)CC3)c1	-5.3	14.0%
C[C@H]1Cc2c(COc3ccccc3)nc3c(c2CO1)CN(C(=O)NCCc1c[nH]c2ccccc12)CC3	1.3[11.7 µM]	-11.0%
COCOc1ccc(OC)cc1C(=O)/C=C/c1ccc(OC)c(Br)c1	1.4&4.0	-3.5%&-12.3%
COc1cccc(Cn2c(=O)c(-c3ccc(Cl)cc3)nc3cnc(N(C)C)nc32)c1	-5.2	22.9%
CCCn1c(-c2ccc(F)cc2)nc2c(N3CCN(CCn4ccnc4)CC3)nc(C)nc21	0.5	4.7%
CC#CCN1c2ccccc2[C@]23C[C@@H](C(=O)OC)N(S(=O)(=O)c4ccc5c(c4)OCCN5C)C2=NC(C(=O)OC)=C(C(=O)OC)[C@H]13	-1.2[11.7 µM]	9.9%
CC(=O)OCC(=O)[C@@]1(O)CCC2C3CCC4=CC(=O)C=CC4(C)C3C(O)C[C@]21C (stereo partly drawn)	-2.1	14.6%
CC(C)C[C@H](NC(=O)[C@H](CCCCN)NC(=O)[C@H](CCCNC(=N)N)NC(=O)[C@H](C)NC(=O)[C@H](CO)NC(=O)[C@H](CCCCN)NC(=O)[C@H](CCCNC(=N)N)NC(=O)[C@H](C)NC(=O)CNC(=O)[C@@H](NC(=O)[C@H](Cc1ccccc1)NC(=O)CNC(=O)CNC(=O)[C@@H](N)Cc1ccccc1)[C@@H](C)O)C(=O)N[C@@H](C)C(=O)N[C@@H](CC(N)=O)C(=O)N[C@@H](CCC(N)=O)C(=O)O	-3.3	-4.9%
Cc1cc2ccc(=O)oc2cc1OC[C@@H](O)C(C)(C)O	1.1	4.3%
N=C(C[C@@H](O)COc1ccccc1-c1ccccc1)N1CCCCC1	-11.9	-4.4%

An excerpt (hit frequency here may not be typical).
